# From PubChem
# Env fusion inh = inhibitors of HIV-1 Env-driven cell-cell fusion, primary screen, HeLa-JRFL effector, CEM21 target cells, luciferase; inhibition, % at 12.3 µM; 360,000 tested, 1.1% active;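 active = mean replicate inhibition score of at least 50 and every replicate individually at or above 50; inconclusive = only one of the two criteria met; inactive = mean below 50 and not all replicates reaching 50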;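 also: 0% = plate neutral controls and 100% = maraviroc near 300 nM; one replicate is shown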
# CSC inhib = cancer stem cell viability inhibitors, primary screen, luminescence. inhibition, % at 7.5 µM. cancer stem cell-like cells viability. 300,000 tested, 1.1% active;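 active = mean at 75% or more and at least half the replicates too; inconclusive = mean and replicates disagree; tested in HMLE shEcad cells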;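 also: 0% = median of negative and 100% = median of positive control wells; the first replicate is given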
# PABP FP inh = PABP poly(A) RNA binding inhibitors, primary screen, biochemical, fluorescence polarization, uHTS; Polyadenylate-binding protein 1 (Homo sapiens), P11940; 290,000 tested, 1% active; inhibition, % at 35 µM; AID 2014, 2009;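 active = 50% or more with normal probe brightness, or confirmed in later tests; inconclusive = above 50% with abnormal brightness, or retests that disagree; inactive = below 50% or failed in later tests; about a fifth of its hits are not listed in these tables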;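 also: calls also rest on retests at 20 µM and on dose response follow-up; controls were probe without protein and protein plus probe with vehicle; some compounds called inactive have numbers as strong as hits; many hits fall short of the cut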
# MT1-MMP act inh = blockers of MT1-MMP proenzyme processing, primary screen, HT1080 RFP-PRO-GFP cells, GFP/RFP fluorescence | Matrix metalloproteinase-14 (Homo sapiens), P50281 | GFP/RFP ratio fluorescence, overnight; percent of plate control window, DMSO zero | GFP/RFP ratio change, % at 20 µM | 360,000 tested, 0.061% active;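 active = GFP/RFP ratio change of at least 30% with cell ATP level not reduced by more than half and red fluorescence within 50% of control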; also: strong numbers were not always called active
#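 Assay system – RFP-PRO-GFP reporter HT1080 cells · Compound dosing – single dose of 20 µM compound, 1% DMSO final · Incubation – overnight compound exposure at 37 °C · Measure – GFP/RFP fluorescence ratio · Benchmarks – DMSO wells and RFP-L50D-GFP cells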
# UUG fidelity = modulators of yeast start codon fidelity, primary screen, whole organism, S. cerevisiae, single point, plate reader; AID 602363, 2012; activity score, % at 18.7 µM; 350,000 tested, 0.13% active; S. cerevisiae UUG-firefly luciferase reporter, luminescence/redox ratio;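 active = replicate mean at a twofold rise or more, about +100% in these data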;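 also: firefly luciferase made from a UUG start codon reports start codon fidelity; reporter light over untreated wells divided by growth signal over untreated wells; some hits fall short of that in this replicate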
# eIF4H FP inh = human eIF4H binding inhibitors, primary screen, translation initiation inhibitor project, biochemical, uHTS, fluorescence polarization; Eukaryotic translation initiation factor 4H (Homo sapiens), Q15056; eIF4H fluorescence polarization binding assay; inhibition, % at 35 µM; 290,000 tested, 0.94% active; AID 2012, 2009;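 active = 50% or more with normal probe brightness, or confirmed in later tests; inconclusive = above 50% with abnormal brightness, or retests that disagree; inactive = below 50% or failed in later tests; about a fifth of its hits are not listed in these tables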;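 also: calls also rest on retests at 20 µM and on dose response follow-up; 0% = protein and probe with vehicle and 100% = probe without protein; strong numbers were not always called active; many hits fall short of the cut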
# Rce1 inh = yeast Rce1p protease inhibitors, primary screen, biochemical, fluorescence, cell-free homogeneous. CAAX prenyl protease 2 (Saccharomyces cerevisiae (strain ATCC 204508 / S288c)), Q03530. yeast membranes, quenched prenylated peptide cleavage fluorescence. calls only. 290,000 tested, 0.27% active. AID 2563, 2010;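 active = fall in fluorescence gain of 50% or more versus controls, with final raw signal at or below 3038400; inconclusive = same 50% fall but final raw signal above 3038400; inactive = fall in fluorescence gain under 50%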;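 also: plate controls were neutral control wells for no effect and wells lacking membranes for full effect; tested at 10 µM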
# Target sequence (Q03530 whole entry, looked up): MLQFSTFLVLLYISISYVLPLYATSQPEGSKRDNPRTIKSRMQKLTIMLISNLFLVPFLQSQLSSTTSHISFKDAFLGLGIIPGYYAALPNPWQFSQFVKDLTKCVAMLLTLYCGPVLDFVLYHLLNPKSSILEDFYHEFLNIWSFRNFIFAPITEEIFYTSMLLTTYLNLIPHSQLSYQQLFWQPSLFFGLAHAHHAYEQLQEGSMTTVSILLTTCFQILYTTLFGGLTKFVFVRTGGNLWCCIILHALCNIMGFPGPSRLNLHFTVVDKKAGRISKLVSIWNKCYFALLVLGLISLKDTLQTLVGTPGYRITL
# MT1-MMP act inh RFP = recorded beside MT1-MMP act inh, whose call it bears; RFP signal change, %; measured here: RFP expression control read;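 0 = vehicle wells; hits needed this value within 50% of zero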
# Starred values were filed as active, the others as inactive; i = inactive; ? = inconclusive; . = no result given.
SMILES,Env fusion inh,CSC inhib,PABP FP inh,MT1-MMP act inh,MT1-MMP act inh RFP,UUG fidelity,eIF4H FP inh,Rce1 inh
CCCOC(=O)c1sc2nc3c(cc2c1N)C(=O)CCC3,.,-4.8,4.7,5.0,9.0,-4.8,6.0,i
COc1cc(Cl)c(C)cc1NC(=O)CNC(C)c1ccccc1OC (stereo unspecified),32.6,11.4,-5.3,-2.5,-1.8,.,-2.5,i
CC(C)c1cc(CN2CCOCC2)cc(C(C)C)c1O,6.9,-8.9,0.9,1.7,9.2,-16.8,0.7,i
NS(=O)(=O)c1ccc(CCNC(=O)c2ccc3nccnc3c2)cc1,-6.0,-9.6,.,-7.4,-2.1,-12.2,.,.
C[C@H]1CC[C@]2(O[C@H](CCO)C[C@@H](O)[C@@H]2O)O1,-1.3,-9.2,1.0,0.0,-0.8,-9.1,1.5,i
CC(=C/c1ccccc1)/C=N/NC(=O)CSc1nc(C)cc(C)n1,19.5,.,0.9,0.5,-2.6,.,-5.9,i
Cc1ccccc1N/C(=N/S(=O)(=O)c1cc(F)ccc1F)c1ccccc1,25.6,-1.5,3.3,-1.5,2.4,-2.9,-10.3,i
O=C(N/N=C\c1ccccn1)C1COc2cc3ccccc3cc2O1 (stereo unspecified),.,11.1,-4.0,15.7,4.9,-22.3,-0.6,i
OCCOCCn1c2ccccc2c2ccccc21,.,-9.8,-1.1,-1.9,-0.6,-18.0,0.7,i
COc1cccc(C(=O)Nc2cccc(OC(C)=O)c2)c1,.,.,-9.0,0.9,-3.8,-24.0,-8.0,i
COc1ccc(NC(=O)C2=C(C)NC(=O)NC2c2cccs2)c(OC)c1 (stereo unspecified),8.0,-0.3,-1.5,1.3,3.4,5.5,1.4,i
Cc1[nH]c(=O)[nH]c(=O)c1S(=O)(=O)Nc1ccc(Oc2ccccc2)cc1,.,1.5,-5.6,-1.1,-3.0,6.1,10.3,i
O=c1[nH]nc(-c2ccccc2)cc1-c1ccccc1,7.5,4.2,.,5.0,-6.0,.,.,i
Cc1ccccc1N(CC(=O)NCc1ccc2c(c1)OCO2)C(=O)C1CSC(=O)C1 (stereo unspecified),-5.2,-3.5,2.4,1.6,1.6,-3.9,3.3,i
CC(=O)c1ccc(NC(=O)Nc2ccc(NS(=O)(=O)c3ccc(C)cc3)cc2)cc1,.,0.7,-1.9,-5.8,-7.9,.,0.1,i
CSc1ccc(/C=N/NC(=O)c2cc(O)cc(O)c2)cc1,-148.1,26.3,6.1,5.9,6.5,-14.3,-3.6,i
Cc1nc2cc(C(F)(F)F)ccc2n1C1CCN(CC(=O)N2CCOCC2)CC1,?,-11.9,3.8,5.3,11.5,.,8.3,i
CC1CCCCN1C(=O)COC(=O)c1ccc(N2CCCC2=O)cc1 (stereo unspecified),.,-23.2,.,1.6,1.3,1.7,.,.
COC(=O)C1=C(C(=O)OC)[C@@H]2N(C)c3ccccc3[C@@]23C[C@@H](C(=O)OC)N(C(=O)c2ccco2)C3=N1,-16.8,-13.5,.,-2.5,4.7,-3.0,.,i
CC(C)(CN1CCCC1)NS(=O)(=O)c1ccccc1,3.8,-9.1,-1.3,0.2,-1.4,-2.1,-6.0,i
COc1ccc(CN(C(=O)c2oc3cc(C)c(C)cc3c2C)C2CCS(=O)(=O)C2)cc1OC (stereo unspecified),20.2,-11.7,-3.1,-5.4,-5.3,2.4,-3.5,i
Brc1ccc(-c2nnc3ccc(N4CCN(c5ccccc5)CC4)nn23)cc1,.,-2.4,2.3,0.3,2.9,-24.8,16.0,i
Cc1nc2cc(NS(=O)(=O)c3ccccc3)ccc2n1C,-0.8,-15.7,5.0,2.3,0.0,-15.4,6.6,i
CCCCCCCCNC(=O)/C(C#N)=C/c1ccc2c(c1)OCCO2,16.2,0.9,20.6,-2.2,-2.3,.,-7.8,i

# Laid out differently: results already given.
> O=c1[nH]nc(-c2ccccc2)cc1-c1ccccc1
  Env fusion inh: 7.5; CSC inhib: 4.2; PABP FP inh: .; MT1-MMP act inh: 5.0; MT1-MMP act inh RFP: -6.0; UUG fidelity: .; eIF4H FP inh: .; Rce1 inh: i
> Cc1nc2cc(NS(=O)(=O)c3ccccc3)ccc2n1C
  Env fusion inh: -0.8; CSC inhib: -15.7; PABP FP inh: 5.0; MT1-MMP act inh: 2.3; MT1-MMP act inh RFP: 0.0; UUG fidelity: -15.4; eIF4H FP inh: 6.6; Rce1 inh: i
> Brc1ccc(-c2nnc3ccc(N4CCN(c5ccccc5)CC4)nn23)cc1
  Env fusion inh: .; CSC inhib: -2.4; PABP FP inh: 2.3; MT1-MMP act inh: 0.3; MT1-MMP act inh RFP: 2.9; UUG fidelity: -24.8; eIF4H FP inh: 16.0; Rce1 inh: i

# (continued)
SMILES,Env fusion inh,CSC inhib,PABP FP inh,MT1-MMP act inh,MT1-MMP act inh RFP,UUG fidelity,eIF4H FP inh,Rce1 inh
CCCCCCCCNc1nc(Cl)nc(NCCN2CCOCC2)n1,4.4,-11.0,0.9,1.1,-4.3,-12.4,5.5,i
COc1cc(CN2CCN(Cc3cccc(OC)c3OC)CC2)cc(OC)c1,?,-2.3,4.5,-1.6,3.5,8.0,7.7,i
COc1ccc(C(C)(O)c2nc(-c3ccc(Cl)cc3)cs2)cc1 (stereo unspecified),-10.3,.,.,4.8,-7.8,-8.1,.,.
O=C(CCl)N1c2ccccc2SCC1c1ccccc1 (stereo unspecified),-0.5,-7.1,-6.5,-3.2,-1.3,-13.2,-3.8,i
Cn1c(/C=N/O)nc2ccccc21,9.0,-12.1,-0.4,1.2,-0.1,.,-1.9,i
CC(C)Cn1c(SCC(=O)Nc2cccnc2Cl)nnc1-c1ccco1,.,-8.8,.,4.0,-3.2,-14.1,.,.
Cc1ccc2nc(Cl)c(/C=N/n3c(C)nnc3C)cc2c1,-15.2,13.9,4.0,4.2,0.5,.,-22.4,i
C[C@H](NC(=O)COc1ccc(Cl)cc1)C(=O)N1CCC2(CC1)NCCc1[nH]cnc12,1.3,13.2,.,3.0,5.3,-5.1,.,i
O=C(/C=C/c1cccs1)NC(=S)NNC(=O)c1ccccc1O,?,.,-1.2,-4.0,-12.3,.,14.0,i
CCCN(Cc1nc(-c2ccc(Cl)cc2)no1)CC1CCCO1 (stereo unspecified),-4.3,-20.2,-1.1,-3.6,-2.6,.,-7.9,i
CCOc1ccc2[nH]c(C)c(CN3CCCCCC3)c(=O)c2c1,-4.4,8.6,0.3,-0.4,1.9,-15.4,0.5,i
CCCc1[nH]nc2c1C(c1ccc(OC)c(Cn3nnc4ccccc43)c1)C(C#N)=C(N)O2 (stereo unspecified),.,-0.3,-5.3,0.3,0.2,-24.1,-2.8,i
CCOC(=O)c1ccccc1NC(=O)COC(=O)CCNS(=O)(=O)c1ccccc1,-21.8,-10.2,-10.2,2.3,3.8,-3.8,1.3,i
COc1cccc(/C=N/n2c(-c3cc(C)[nH]n3)n[nH]c2=S)c1O,16.6,-4.9,8.3,.,.,.,-0.8,i
CCN(/N=C/c1ccc(N(C)C)cc1)c1nc2ccccc2[nH]1,-15.7,.,-4.2,7.7,2.3,.,-9.2,i
O=C(O)C1CCCCN1S(=O)(=O)c1cccc2nsnc12 (stereo unspecified),.,-0.2,1.9,-4.2,0.7,.,5.3,i
NS(=O)(=O)c1ccc(CCNC(=O)c2cc(-c3cc(Cl)ccc3O)n[nH]2)cc1,-3.9,22.2,4.0,1.5,0.7,12.6,-3.6,i
O=S(=O)(c1cccc(S(=O)(=O)N2CCC(N3CCCCC3)CC2)c1)N1CCOCC1,.,.,-14.7,.,.,.,-2.1,i
CCOc1cc2[nH]c(=S)n(CCCN(CC)CC)c(=O)c2cc1OCC,47.3,-7.6,-11.3,-14.5,-9.0,-25.3,-5.5,i
COc1ccc(C(=O)CCC(=O)NCCc2c[nH]c3ccccc23)cc1OC,3.4,1.3,1.4,2.6,1.6,15.2,-5.2,i
N#C/C(=C\C=C\c1ccccc1)C(=O)N1CCCC1,2.4,-7.3,4.7,-1.9,-0.7,.,0.9,i
CN(Cc1cccc(Cl)c1)C(=O)C1CSC2(C)CCC(=O)N12 (stereo unspecified),.,-17.9,.,3.6,4.6,0.7,.,i
COc1cccc(-n2c(SCC(=O)N3CCOCC3)nc3c([nH]c4ccccc43)c2=O)c1,.,-8.9,.,9.9,5.7,-15.3,.,i
COC(=O)C(Cc1ccc(O)cc1)NC(=O)CCOc1ccc(OC)cc1 (stereo unspecified),6.5,-2.0,3.6,-1.5,4.0,-4.1,-4.5,i
Cc1ccc(S(=O)(=O)N(C)C[C@@H]2Oc3ccc(NC(=O)Nc4cccc5ccccc45)cc3C(=O)N([C@H](C)CO)C[C@H]2C)cc1,6.2,-8.5,.,-1.0,-2.3,-14.1,.,.
COCc1cc(=O)n2[nH]c(-c3ccccc3)cc2n1,.,-4.5,-4.5,1.5,5.2,-5.0,4.8,i
COc1ccc(N2CCN(C(=O)CN3C(=O)NC(c4ccc(OC)cc4)(c4ccc(OC)cc4)C3=O)CC2)cc1,11.3,-7.4,4.1,-6.1,-6.1,-13.8,-6.6,i
COc1ccc2c(c1)OC[C@H]1[C@H]2N2C(=O)c3ccc(C)cc3NC(=O)[C@@]2(C)[C@H]1c1ccccc1,-77.1,.,.,-13.0,-7.8,-8.2,.,.
O=c1[nH]cc(C(F)(F)F)cc1NS(=O)(=O)c1ccccc1[N+](=O)[O-],-7.5,1.7,21.4,-1.2,2.0,.,2.2,i
O=C(NCc1cccs1)C1CCCN1C(=O)NC1CCCCC1 (stereo unspecified),7.3,-9.9,1.1,2.2,6.7,.,-6.2,i
COc1ccc(N2CCN(C(=O)COC(=O)CCc3ccccc3OC)CC2)cc1,-4.7,-9.8,.,0.1,0.4,.,.,i
CCOC(=O)c1c(S(=O)(=O)NCc2ccc(OC)cc2)c(C)n(C)c1C,-3.2,-21.5,0.8,3.8,4.4,6.8,-4.0,i
O=C(Nc1ccccc1NC(=O)c1ccco1)c1ccco1,-72.2,0.1,1.1,0.5,-2.0,-12.9,1.6,i
Nc1ncnc2nc(SCc3ccc(Cl)cc3Cl)[nH]c12,.,39.7,-1.5,-4.7,-7.8,-15.7,1.5,i
Cc1ccc(-n2c(Cc3cccn3C)nnc2SCC(=O)NCc2ccco2)cc1,-72.6,13.2,19.7,-4.5,0.3,-9.1,2.0,i
Cc1ccc(-n2c(C)cn(C(=O)c3ccccc3)c2=S)cc1,-5.9,11.4,-0.9,-1.5,-1.3,-9.4,-4.5,i
COCCCn1c(C(=O)NCCN2CCOCC2)cc2c(=O)n3cccc(C)c3nc21,0.8,-1.2,4.0,-3.4,2.8,15.2,5.3,i
Cc1cc(NC(=O)c2ccc3c(c2)C(=O)N(CC(C)C)C3=O)no1,11.4,-6.6,-7.5,-2.7,0.6,.,-14.4,.
CCOC(=O)c1ccc(N=CC2=C(O)CC(C)(C)CC2=O)cc1,.,-14.4,5.6,4.2,5.5,-12.0,0.9,i
CC(C)(C)OC(=O)NCCc1onc(-c2ccccc2F)c1C(=O)O,-28.7,.,.,1.1,6.1,-7.5,.,.
Cc1cc(C)n(CC(=O)N/N=C/c2ccc(C)o2)n1,-39.9,-0.8,2.6,2.8,5.8,-14.1,2.1,i
COc1ccc(C(=O)NC2(C(F)(F)F)C(=O)N(Cc3ccco3)C3=C2C(=O)CC(C)(C)C3)cc1OC (stereo unspecified),-67.9,2.8,-7.4,-0.6,-2.1,-10.2,4.8,i
